Vaccinia inh – Vaccinia orthopox stage-specific inhibition. AID 1053133. actives 0.01% (n = 89,000). activity change (mCherry), % (no concentration beside the values). Vaccinia-infected cells, mCherry/Venus stage reporter fluorescence; active compounds read low; some inactives read as strong as hits;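 active = mCherry past -33% and 40 or more points under the early reporter, replicates agreeing; inconclusive = past -33% without that gap or agreement; tested in A549 cells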;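 note: scaled between vehicle wells and reference inhibitor wells; 23 nL library stock went into each well; one replicate is shown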
Vaccinia inh Venus – further read-out of Vaccinia inh, marked with its call; activity change (Venus), %; measured here: Venus reporter, other viral stage;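 negative = less Venus signal; first of two replicates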
Active calls of the source: *; u = inconclusive; x = no result given; & = joins results of further samples.

SMILES	Vaccinia inh	Vaccinia inh Venus
C[C@@H]1CCCCO[C@@H](CN(C)C(=O)C2CCCCC2)[C@H](C)CN([C@H](C)CO)C(=O)c2cc(NC(=O)NC3CCCCC3)ccc2O1	u	x
C[C@H](CO)N1C[C@H](C)[C@H](CN(C)C(=O)Nc2cccc3ccccc23)Oc2ncc(-c3ccc(F)cc3)cc2C1=O	-29	-21
COc1ccc(COC[C@@]23Oc4ccccc4[C@@H](NC(=O)N2C)[C@H]3COC(=O)c2ccc([N+](=O)[O-])cc2)cc1	u	x
COC(=O)C[C@H]1CC[C@H]2[C@H](COc3ccc(NC(=O)c4ccc(C(F)(F)F)cc4)cc3C(=O)N2C)O1	2	-2
O=C(C1=C[C@H](c2ccc(C(F)(F)F)cc2)C[C@H](OCc2ccc(CO)cc2)O1)N1CCCC1	-14	-5
Cc1ccc(CN2CC(=O)N3[C@H](CO)[C@@H](c4ccc(-c5ccccc5F)cc4)[C@H]3C2)cc1	2	2
O=C(Nc1ccccc1)N[C@@H](Cc1ccccc1)Cn1cc(CN2C(=O)COC[C@H]2c2ccccc2)nn1	-7	-8
C/C=C/c1ccc2c(c1)O[C@H](CN(C)Cc1ccccc1F)[C@H](C)CN([C@H](C)CO)S2(=O)=O	u	x
C[C@@H]1CCCCO[C@H](CN(C)S(=O)(=O)c2cn(C)cn2)[C@H](C)CN([C@H](C)CO)C(=O)c2cc(NS(C)(=O)=O)ccc2O1	5	-2
C[C@@H]1CN([C@H](C)CO)C(=O)CCCn2cc(nn2)CO[C@H]1CN(C)C(=O)NC1CCCC1	9	3
CO[C@@H]1CN(C)C(=O)c2cc(NC(=O)C3CC3)ccc2OC[C@@H](C)N(C)C[C@H]1C	4	-3
C[C@H](CO)N1C[C@H](C)[C@@H](CN(C)C)Oc2ccc(NC(=O)Cc3cn(C)c4ccccc34)cc2CC1=O	3	-4
CCCc1cn(CC[C@@H]2CC[C@H](NC(=O)Nc3ccc4c(c3)OCO4)[C@@H](CO)O2)nn1	5	7
Cc1ccc(S(=O)(=O)N(C)C[C@@H]2Oc3ccc(NC(=O)CCC(F)(F)F)cc3C(=O)N([C@@H](C)CO)C[C@@H]2C)cc1	10	9
COc1ccc(S(=O)(=O)N[C@H]2CC[C@@H](CCNC(=O)CN3CCOCC3)O[C@H]2CO)cc1	18	12
CO[C@@H]1CN(C)C(=O)c2cc(NC(=O)Nc3ccccc3)ccc2OC[C@H](C)N(C(=O)CN(C)C)C[C@H]1C	2	3
COc1ccc(CN(C)C[C@H]2OCCCC[C@H](C)Oc3ccc(NC(=O)NC(C)C)cc3C(=O)N([C@H](C)CO)C[C@H]2C)cc1	-5	-2
COCC(=O)N(C)C[C@@H]1Oc2cc(C#Cc3ccccc3)ccc2S(=O)(=O)N([C@@H](C)CO)C[C@@H]1C	-10	-13
Cc1cccc(S(=O)(=O)N2C[C@@H](O)COC[C@H]3O[C@H](CC(=O)Nc4ccccc4)CC[C@@H]32)c1	-19	-12
CCCC#Cc1ccc2c(c1)O[C@@H](CN(C)S(C)(=O)=O)[C@H](C)CN([C@H](C)CO)S2(=O)=O	2	6
O=C(N[C@H]1CC[C@H](CCn2cc(-c3ccccn3)nn2)O[C@H]1CO)c1ccncc1	3	0
C[C@H](CO)N1C[C@H](C)[C@@H](CN(C)C(=O)CCCN(C)C)OCCCC[C@H](C)Oc2ccc(NC(=O)C3CCCCC3)cc2C1=O	-4	-6
CS(=O)(=O)Nc1ccc2c(c1)[C@@H]1C[C@H](CC(=O)NC3CCCC3)O[C@H](CO)[C@@H]1O2	-1	-6
CC1(CCO)CC(C)(CCc2ccccc2)OO1 (stereo not given)	u	x
CCC(=O)N1C[C@H](C)[C@H](OC)CN(C)C(=O)c2cc(NC(=O)Nc3cccc(F)c3)ccc2OC[C@@H]1C	2	-9
C[C@H](CO)N1C[C@H](C)[C@H](CN(C)CC2CCCCC2)Oc2ccc(NS(=O)(=O)c3ccccc3)cc2CC1=O	5	-5
O=C(C[C@H]1C[C@@H]2c3cc(NC(=O)c4ccc5c(c4)OCO5)ccc3O[C@@H]2[C@@H](CO)O1)NCC1CC1	10	7
N#C[C@@H]1[C@H](c2ccccc2)[C@@H](CO)N1C(=O)c1cc(Cl)cc(Cl)c1	8	-2
CCCNC(=O)[C@H]1[C@H](CO)[C@H]2Cn3c(ccc(/C=C/c4ccccc4)c3=O)[C@@H]1N2C(=O)c1cccnc1	-3	1
C[C@H]1CN([C@@H](C)CO)C(=O)c2cc(-c3cccc(C#N)c3)cnc2O[C@H]1CN(C)C	25	11
C[C@@H]1CN([C@H](C)CO)C(=O)Cc2cc(NC(=O)Nc3ccc(F)cc3)ccc2O[C@@H]1CN(C)CC1CCCCC1	-18	-1
Cc1ccc(S(=O)(=O)N(C)C[C@@H]2OCCCC[C@H](C)Oc3ccc(NS(=O)(=O)c4ccccc4)cc3C(=O)N([C@H](C)CO)C[C@H]2C)cc1	u	x
CCCC#Cc1cnc2c(c1)C(=O)N([C@H](C)CO)C[C@H](C)[C@@H](CN(C)Cc1ccc3c(c1)OCO3)O2	-26	-16
CO[C@H](CN(C)C(=O)c1ccccc1F)[C@H](C)CN([C@H](C)CO)S(=O)(=O)c1ccc(F)cc1	6	7
O=C(O)[C@H]1[C@H](CO)[C@H]2Cn3c(ccc(-c4ccncc4)c3=O)[C@@H]1N2C(=O)C1CCCCC1	10	17
Cc1ccc(S(=O)(=O)N(C)C[C@@H]2OCc3cn(nn3)CCCC(=O)N([C@@H](C)CO)C[C@H]2C)cc1	8&5	9&5
C[C@H]1CN([C@@H](C)CO)C(=O)c2cccc(NC(=O)Nc3ccc(C(F)(F)F)cc3)c2O[C@@H]1CN(C)Cc1ccc2c(c1)OCO2	-26	-19
CNC[C@H]1Oc2ccc(NS(=O)(=O)c3ccc(C)cc3)cc2C(=O)N([C@H](C)CO)C[C@H]1C	14	6
C[C@@H]1CN([C@@H](C)CO)C(=O)c2cccc(NS(=O)(=O)c3ccc(F)cc3)c2O[C@@H]1CN(C)S(=O)(=O)c1cccs1	0	2
COc1ccccc1-c1ccc2c(c1)O[C@H](CN(C)C(C)=O)[C@H](C)CN([C@@H](C)CO)S2(=O)=O	20	-1
C[C@@H]1CN([C@@H](C)CO)C(=O)c2cc(N(C)C)ccc2O[C@H]1CN(C)C(=O)NC1CCCCC1	29	15
O=C(C[C@@H]1CC[C@H](NC(=O)Nc2ccccc2F)[C@H](CO)O1)NCc1ccccc1	1	-5
COCCNC(=O)C[C@H]1C[C@H]2c3cc(NC(=O)Nc4ccc(OC)cc4)ccc3O[C@H]2[C@H](CO)O1	6	1
Cc1nn(C)cc1NC(=O)C[C@@H]1CC[C@H]2[C@H](COc3ccc(NC(=O)c4cccc(F)c4)cc3C(=O)N2C)O1	-5	-4
O=C(c1ccc(F)cc1)N1CCCCN2[C@@H](CO)[C@@H](c3ccc(C#CC4(O)CCCC4)cc3)[C@@H]2C1	3	-1
C[C@H](CO)N1C[C@H](C)[C@H](CN(C)Cc2ccc(Oc3ccccc3)cc2)OCc2cn(nn2)CCCC1=O	-3	-8
COc1cccc(S(=O)(=O)N(C)C[C@H]2Oc3ncc(-c4cccc(C(=O)N(C)C)c4)cc3C(=O)N([C@H](C)CO)C[C@H]2C)c1	29	13
Cc1noc(C)c1NC(=O)N(C)C[C@@H]1OCCCC[C@H](C)Oc2ccc(NC(=O)CCC(F)(F)F)cc2C(=O)N([C@@H](C)CO)C[C@@H]1C	24	8
CCC(=O)N1[C@@H](C#N)[C@H](c2ccccc2-c2ccccc2)[C@@H]1CO	3	0
CCC(=O)N(C)C[C@@H]1Oc2cc(C#CC(C)(C)O)ccc2S(=O)(=O)N([C@H](C)CO)C[C@@H]1C	12	9
COc1ccc(NC(=O)N(C)C[C@@H]2Oc3ncc(-c4cc5ccccc5o4)cc3C(=O)N([C@H](C)CO)C[C@@H]2C)cc1	u	x
CCCN1C[C@@H](C)[C@H](OC)CN(C)C(=O)c2cc(NC(=O)Nc3c(C)noc3C)ccc2OC[C@@H]1C	0	-2
CO[C@@H]1CN(C)C(=O)c2cc(NC(=O)Nc3cccc(Cl)c3)ccc2OC[C@@H](C)NC[C@H]1C	u	x
CCS(=O)(=O)Nc1ccc2c(c1)C(=O)N(C)C[C@@H](OC)[C@@H](C)CN(C(=O)NC(C)C)[C@@H](C)CO2	7	4
C[C@H](CO)N1C[C@H](C)[C@H](CN(C)S(=O)(=O)c2ccccc2)Oc2ccc(NC(=O)C3CC3)cc2C1=O	10	6
C[C@H](CO)N1C[C@H](C)[C@H](CN(C)C(=O)Nc2ccccc2)OCCCC[C@H](C)Oc2ccc(NS(=O)(=O)c3cccs3)cc2C1=O	-11	-10
C[C@@H]1CN([C@@H](C)CO)C(=O)c2cc(/C=C/c3ccccc3)cnc2O[C@H]1CN(C)C(=O)c1cccc(F)c1	u	x
C[C@H]1CN([C@@H](C)CO)C(=O)CCCn2cc(nn2)CO[C@@H]1CN(C)S(=O)(=O)c1cccc(C#N)c1	3	0
CCC(=O)N1[C@H](CO)[C@H](c2ccccc2)C12CN(C(=O)NC1CCCC1)C2	4	2
O=C(C[C@@H]1C[C@@H]2c3cc(NC(=O)Nc4ccccc4)ccc3O[C@@H]2[C@@H](CO)O1)NCCN1CCCCC1	-3	5
The results go on:
SMILES	Vaccinia inh	Vaccinia inh Venus
CO[C@@H]1CN(C)C(=O)c2ccc(NC(=O)Cc3ccccc3)cc2OC[C@@H](C)N(CC2CC2)C[C@@H]1C	9	4
Cc1ccc(S(=O)(=O)Nc2cccc3c2O[C@@H](CN(C)C(=O)Nc2ccc(F)cc2)[C@H](C)CN([C@H](C)CO)C3=O)cc1	11	7
C[C@@H]1CCCCO[C@H](CN(C)Cc2ccc(C(=O)O)cc2)[C@H](C)CN([C@H](C)CO)C(=O)c2cc(NC(=O)CCCN(C)C)ccc2O1	12	4
O=C(C[C@H]1CC[C@H]2[C@@H](COC[C@@H](O)CN2S(=O)(=O)c2ccc(F)cc2)O1)NCCN1CCCCC1	2	-2
CO[C@@H]1CN(C)C(=O)c2ccc(NS(C)(=O)=O)cc2OC[C@@H](C)N(CC2CCCCC2)C[C@@H]1C	4	0
C[C@@H]1CN([C@@H](C)CO)S(=O)(=O)c2ccc(C#Cc3ccccn3)cc2O[C@H]1CN(C)Cc1cccc(F)c1	-27	-31
CNC[C@H]1Oc2ccc(NC(=O)CCN3CCOCC3)cc2CC(=O)N([C@@H](C)CO)C[C@H]1C	5	9
C[C@H]1CN([C@@H](C)CO)C(=O)c2c(c3ccccc3n2C)-c2ccccc2CO[C@H]1CN(C)C(=O)[C@H]1CCCN1C	-15	-14
CCCC(=O)Nc1ccc2c(c1)C(=O)N(C)C[C@@H](OC)[C@@H](C)CN(Cc1cncnc1)[C@H](C)CO2	19	15
Cc1ccc(S(=O)(=O)NCC[C@@H]2CC[C@@H](NC(=O)CCN3CCCCC3)[C@H](CO)O2)cc1	8	6
C[C@H](CO)N1C[C@H](C)[C@H](CN(C)C(=O)CN(C)C)Oc2cc(C#Cc3ccccc3)ccc2S1(=O)=O	u	x
O=C(c1ccccc1F)N1CC2(C1)[C@@H](c1ccccc1)[C@@H](CO)N2CC1CC1	8	7
CO[C@H]1CN(C)C(=O)c2cc(NC(C)=O)ccc2OC[C@H](C)N(C(=O)c2ccccc2F)C[C@H]1C	5	8
C[C@H]1CN([C@@H](C)CO)C(=O)c2cc(C#CC3CCCCC3)cnc2O[C@H]1CN(C)C(=O)Nc1ccccc1	u	x
C/C=C/c1cnc2c(c1)C(=O)N([C@@H](C)CO)C[C@H](C)[C@H](CN(C)C(=O)c1cnccn1)O2	11	2
Cc1ccc(-c2ccccc2[C@@H]2[C@@H](CO)N(C(=O)Cc3cccnc3)[C@H]2C#N)cc1	-9	-1
CN1CCN(C(=O)C[C@H]2CC[C@@H]3[C@H](COC[C@H](O)CN3Cc3cccc(-c4ccncc4)c3)O2)CC1	-3	-10
CCOC(=O)N(C)C[C@H]1OCc2cnnn2CCCC(=O)N([C@H](C)CO)C[C@H]1C	15&3	2&5

The list is partial, so the mix of outcomes need not match the whole.
